Screening data: PubChem, National Center for Advancing Translational Sciences (NCATS)
HPGD inh – inhibitors of human 15-hydroxyprostaglandin dehydrogenase (HPGD). P15428. purified HPGD, NADH fluorescence kinetic, PGE2 substrate. Potency, µM, inactives show at the top dose activity change, negative = inhibition, most hits filed as inhibitors. hit rate 4.3% among 150,000. AID 894; active = well fitted inhibition curve with a large enough effect (not every such curve was filed as active); inconclusive = small, poorly fitted or top-dose-only effect, or another doubt; inactive = no such curve, though single readings can be large or run the other way;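 note: top concentration of the series not given in the record; plate controls included wells without enzyme; inactives centre near -10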
Target sequence (P15428 whole entry, looked up): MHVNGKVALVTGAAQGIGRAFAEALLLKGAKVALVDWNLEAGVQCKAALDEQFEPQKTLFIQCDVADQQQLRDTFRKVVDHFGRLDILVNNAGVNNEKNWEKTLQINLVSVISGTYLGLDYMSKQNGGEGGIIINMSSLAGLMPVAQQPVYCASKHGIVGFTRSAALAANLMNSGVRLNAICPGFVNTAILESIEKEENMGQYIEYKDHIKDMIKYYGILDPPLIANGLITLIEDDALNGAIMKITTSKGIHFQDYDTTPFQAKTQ
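20 nM HPGD preincubated 15 min at room temperature with compound in 50 mM Tris-HCl pH 8, 0.01% Tween 20. Started with 1 mM NAD+ and 30 uM prostaglandin E2; NADH fluorescence (360/450 nm) read 5 times over 30-s intervals, last minus first.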
* hit, by the source's call; ? = inconclusive; & = joins results of further samples. % is set by controls: 0 for no effect and ±100 for the full control effect; potency is the fitted concentration of half-maximal effect. A portion of the library; count on the stated rates, not on these rows.

HPGD inh | Compound
-18% | Oc1c(CN2CCCCC2)cc(Br)c2cccnc12
-23% | Cc1cc(SCC(=O)NC(=O)NCc2ccco2)nc2ccccc12
-5% | CCOc1ccc(C2CC(=O)c3c([nH]c(C(=O)OC)c3C)C2)cc1OC (stereo not drawn)
-22% | c1ccc2c(c1)[nH]c1c(N3CCN(C4CCCCC4)CC3)ncnc12
-7% | CCN(CC)CC(=O)Nc1ccc2c(c1)N(C(=O)CN(CC)CC)c1ccccc1CC2
22µM* | Cc1cc(C(F)F)n2ncc(C(=O)NC3CCCCCC3)c2n1
-5% | Cc1occc1-c1nnc(SCC(=O)N2CCOCC2)o1
-8% | COc1ccc(/C=N/NC(=O)C(Cc2c[nH]c3ccccc23)NC(=O)OCC(C)C)cc1[N+](=O)[O-] (stereo not drawn)
25µM* | O=c1c(-c2ccc(O)cc2)coc2cc(O)cc(O)c12
-14% | CCOC(=O)C1=C(C)N=C(SC)N(C)C1c1ccccc1 (stereo not drawn)
-7% | COc1cccc(C2CC(c3ccc(C(C)C)cc3)n3nc(N)nc3N2)c1 (stereo not drawn)
-11%&2% | CC(O)(P(=O)(O)O)P(=O)(O)O
-6% | C#CC1CN(Cc2ccccc2)CC(C#C)N1C (stereo not drawn)
-25% | CCOC(=O)NC(=O)/C(C#N)=N\Nc1ccc(Cl)cc1
-20% | CC(O)CN=c1cc(-c2ccccc2)oc2ccc(Cl)cc12 (stereo not drawn)
? | CN(C)c1cccc(C(=O)OCC(=O)Nc2ccccc2Sc2ccccc2)c1
-3% | Cc1ccccc1Nc1nc(N)nc(CSc2ccccc2)n1
-23% | COC(=O)c1c(-c2ccc(C)cc2)csc1NC(=S)NC(=O)c1ccc(F)cc1
-9% | Nc1ccc(-n2nncc2-c2ccccc2)cc1
? | NC(=O)c1oc2ccccc2c1NC(=O)CCc1ccccc1
-18% | CCN(CC)c1ccc(/C=N/N2CCOCC2)cc1
-10% | O=C(Oc1ccc(N2C(=O)CCC2=O)cc1)c1ccco1
-8% | CCn1c(SCC(=O)N2CCc3ccccc32)nnc1-c1ccco1
-25% | CCN(c1ccc(NC(=O)COC(=O)c2ccc3ccccc3n2)cc1)C(C)C
? | CCOC(=O)Cn1c(=NC(=O)c2nc3ccccc3s2)sc2cc(S(N)(=O)=O)ccc21
? | CC(C)C1C(C#N)=C(N)SC(N)=C1C#N
-7% | CCOC(=O)c1cc(C(=O)Nc2cccc(C)c2)nn1C
-2% | CCCCNC(=O)c1nn(-c2ccccc2OC)c(=O)c2ccccc12
-9% | Cc1ccc(-c2nnc(SCC(=O)N3c4ccccc4NC(=O)C3(C)C)n2N)cc1
-13% | C#CCN1C(=O)C(O)(CC(=O)c2cc(OC)ccc2OC)c2ccccc21 (stereo not drawn)
? | Cc1ccc(-n2nnnc2-c2cnc3cc4c(cc3c2C)OCO4)cc1
-11% | Cc1cc(NC(=O)CS(=O)(=O)c2cn(Cc3ccccc3Cl)c3ccccc23)no1
-18% | N=c1c2c(n(Cc3ccccc3)c3c1CCC3)CCC2
-12% | O=C(CS(=O)CC(=O)N(CC(=O)NC1CCCC1)c1ccc2c(c1)OCCO2)Nc1ccc(F)cc1 (stereo not drawn)
-7% | CC(=O)NCCc1ccc(S(=O)(=O)NCc2ccc3c(c2)OCO3)cc1
-30% | CCOC(=O)c1c(CN(C)C)oc2cc(CN(C)C)c(O)c(CSc3ccccc3)c12
7.9µM* | Cc1ccc(SCCC(=O)N2CCC(C)CC2)cc1
-2% | CCN(CC)CCCNC(=O)CC1Sc2ccccc2NC1=O (stereo not drawn)
-3% | COc1ccc(Br)cc1CNCCSc1nnnn1C
-15% | N#Cc1nc(Cc2ccccc2)oc1N1CCC(Cc2ccccc2)CC1
-1% | Cc1ccccc1C1CC(=O)Oc2cc(C)c(Cl)c(C)c21 (stereo not drawn)
-15% | Cc1ccc(C(=O)NCC(=O)OCC(=O)Nc2ccc(Cl)cc2C(F)(F)F)cc1C
-6% | CCCCn1c(CNC(=O)C23CC4CC(CC(C4)C2)C3)nnc1SCC(=O)Nc1nnc(C)s1
-9% | COc1cc(S(=O)(=O)N(Cc2ccc(C)cc2)Cc2ccco2)ccc1-n1cnnn1
-5% | CCOC(=O)C1=C(CC)Nc2ccccc2N=C1NC(=O)Nc1ccccc1OC
-20% | COc1cc(NC(=O)c2ccccc2)c(OC)cc1NC(=O)CN1CCN(c2ccccn2)CC1
-16% | COc1ccccc1-c1nnc2n1N=C(C)CS2
-2% | Cc1ccc([N+](=O)[O-])cc1NC(=O)CN1CCCCC1
-11% | COc1cccc(C2=NOC(C(=O)NCc3cccs3)C2)c1 (stereo not drawn)
0% | CC(C)[C@H](NC(=O)OCc1ccccc1)C(=O)OCC(=O)Nc1c(F)cccc1F
-12% | CCS(=O)(=O)CCSc1nc(C)cc(C)n1
-15% | COc1cc(CN2C(=S)NC(C)(C)CC2(C)O)cc(OC)c1 (stereo not drawn)
-30% | COc1ccc(C(=O)CSc2nnc(-c3cc4ccccc4cc3O)n2Cc2ccco2)cc1
-18% | Cc1cc(/C=C(\C#N)C(=O)NC2CCCCCC2)c(C)[nH]1
-6% | CCCCNC(=O)N1CCc2ccccc2C1
-8% | CCCCCCCCN[C@@H](C)[C@H](O)c1ccc(SC(C)C)cc1
? | COCCCNC(=O)C(=O)N/N=C/c1ccc(OCC(=O)Nc2cccc(Cl)c2C)c(OC)c1
-8% | CC(O)CN(C)CC/C=C1/c2ccccc2CSc2ccccc21 (stereo not drawn)
-23% | COC(=O)c1ccccc1NC(=S)N(Cc1ccc2c(c1)OCO2)Cc1cc2cc(OC)ccc2[nH]c1=O
-16% | Cc1ccc(NC(=O)C(OC(=O)c2ccccc2Cl)c2ccccc2)cc1Cl (stereo not drawn)

Sorted by the number under HPGD inh (falling): 3 of the compounds above
HPGD inh | Compound
-1% | Cc1ccccc1C1CC(=O)Oc2cc(C)c(Cl)c(C)c21 (stereo not drawn)
-6% | CCCCn1c(CNC(=O)C23CC4CC(CC(C4)C2)C3)nnc1SCC(=O)Nc1nnc(C)s1
-12% | CCS(=O)(=O)CCSc1nc(C)cc(C)n1

Continuation.
HPGD inh | Compound
-7% | Cc1cccc(NC(=O)CN(C)S(=O)(=O)c2cnc[nH]2)c1
-28% | Cc1sc(NC(=S)NC(=O)C2CCCCC2)c(C(N)=O)c1C
-19% | O=C1c2ccccc2C(Nc2ccccc2)N1c1ccc(Cl)cn1 (stereo not drawn)
-15% | Cc1ccc(CNCC2CCCO2)s1 (stereo not drawn)
-11% | O=C(Oc1ccc(Br)cc1)C1CC(=O)N(c2ccc(F)cc2)C1 (stereo not drawn)
-24% | COc1ccc2[nH]c(C)c(CN3CCCCC3)c(=O)c2c1
-7% | CCOc1ccc(CC(=O)Nc2c(C(N)=O)oc3ccc(Br)cc23)cc1OCC
-19% | Cn1c(SCC(=O)NCc2ccc3c(c2)OCO3)nnc1-c1cc2ccccc2cc1O
? | CCOc1ccccc1C(=O)Nc1cc(OC)ccc1OC
-5% | CCOC(=O)Cc1nnc(NC(=O)C(CC)Sc2nc(C)cc(C)n2)s1 (stereo not drawn)
? | C=CCN(CC=C)CCOc1cccc2ccccc12
-9% | CCn1c(C)nc2cc(C(=O)NNS(=O)(=O)c3ccc(C)cc3C)ccc21
22µM* | CCc1c(C)sc(NC(=O)CSc2nc3c(c(C(F)(F)F)n2)CCc2ccccc2-3)c1C#N
-7% | CN1CCN(S(=O)(=O)c2ccc(NC(=O)Nc3cccc(Cl)c3)cc2)CC1
? | Cc1ccc(-c2ccc(C(=O)O)[nH]2)cc1
? | O=C(NCCc1csc(-c2cccnc2)n1)c1ccc(Br)o1
-15% | O=[N+]([O-])c1cc2c(c(CSc3nnc4ccccn34)c1)OCOC2
-15% | COCCN(CCOC)c1ncnc2c1cnn2-c1ccc(Cl)cc1
-1% | CCC1CCCCN1C(=S)NC1CCCCC1 (stereo not drawn)
-9% | COC(=O)[C@@H](NC(=O)NCc1ccco1)C(C)C
-6% | COc1ccc(CCNC(=O)CC2Oc3ccc(Cl)cc3NC2=O)cc1OC (stereo not drawn)
-12% | CC(=O)C1=C(C)NC(C)=C(C(C)=O)C1c1cccs1
-24% | Cc1ccsc1/C=N/Nc1ncc(Cl)cc1Cl
-7% | CCN(C(=O)c1cn(C)c(=O)c2cc(OC)c(OC)cc12)c1cc(OC)ccc1OC
-14% | Cc1ccccc1/C=C1\OC(=O)c2ccccc21
-3% | O=C(CCCN1C(=O)/C(=C\c2ccco2)SC1=S)Nc1ccc2ccccc2c1
? | CCC(C)n1c(NC(=O)c2ccccc2)c(C#N)c2nc3ccccc3nc21 (stereo not drawn)
2% | O=C(CCC(=O)NC1CCCCCCC1)Nc1nnc(C(F)(F)F)s1
-3% | Cc1ccc(C(=O)N2c3ccc(F)cc3CCC2C)o1 (stereo not drawn)
-18% | CCC(C(=O)NCc1ccc(F)cc1)N(Cc1ccco1)C(=O)c1snc(C(N)=O)c1N (stereo not drawn)
-15% | CC(C)OC(=O)CSc1nc2cc3c(cc2cc1C#N)OCO3
-2% | COc1ccccc1C(=O)N1C(CC(=O)Nc2cc(Cl)ccc2C)C(=O)NC2CCCCC21 (stereo not drawn)
-1% | C=CCn1c(=S)[nH]c2ccccc2c1=O
-10% | O=S(=O)(NCC1CCCO1)c1ccc2ccccc2c1 (stereo not drawn)
-14% | CCSc1nccc(-c2nn(-c3ccc(C)cc3)ccc2=O)n1
-1% | Cc1ccccc1N=C1N=C(N)c2ccccc21
-3% | CCCn1nnc(NC(=O)C(c2ccccc2)c2ccccc2)n1
2% | CCOc1ccccc1C(=O)N(CN1CCCC1=O)c1cccc(Cl)c1
-10% | COCC(C)NC(=O)C1CC(=O)N(c2ccc(C)cc2)C1 (stereo not drawn)
-5% | CN1CCN(S(=O)C23CC4CC(CC(C4)C2)C3)CC1 (stereo not drawn)
-8% | CC(C)C(=O)N1CCN(c2ccc([N+](=O)[O-])cc2Cl)CC1
-12% | COc1ccc(CCN2C(=O)NC(NC(=O)CC(C)C)(C(F)(F)F)C2=O)cc1OC (stereo not drawn)
-11% | Cc1cc2cc(CNC(=O)c3ccc(S(=O)(=O)N4CCCCC4)cc3)ccc2[nH]1
6.3µM* | CC1CCN(C(=S)c2ccccc2O)CC1
-14% | CCCNC(=O)C(C)n1c2ccccc2c2nc(=O)cc(C)n21 (stereo not drawn)
-8% | CCOC(=O)C1=C(CSc2nc3c(cc2C#N)CCC3)OC(N)=C(C#N)C1c1ccccc1 (stereo not drawn)
? | CCn1c(-c2ccc(N)cc2)nc2ccccc21
-9% | CC(=O)c1ccc(NC(=O)C(=O)c2cn(CC(=O)N3CCCCC3)c3ccccc23)cc1
-1% | Cc1ccc(NC(=O)CC(NCCN2CCOCC2)C(=O)O)cc1Cl (stereo not drawn)
-6% | COc1ccc(CCNC(=O)C/C(C)=N/NC(=O)c2ccc(N)cc2)cc1OC
-7% | COC(=O)C1OC(=O)C2OC23[C@]2(C)C(OC(C)=O)CC4C(C)(C)C(=O)CC[C@]4(C)C2CC[C@@]13C (stereo partly drawn)
-25% | Cc1cc2cc(CCNC(=O)c3cccs3)c(=O)[nH]c2cc1C
-2% | COc1cccc(NC(=O)CN2C(=O)COc3ccc(Cl)cc32)c1
-4% | O=C(NCCCN1CCOCC1)C(Sc1ccccc1)c1ccccc1 (stereo not drawn)
-3% | CCCn1nc(CC(=O)O)c2ccccc2c1=O
5µM* | Nc1cc(S(N)(=O)=O)ccc1SSc1ccc(S(N)(=O)=O)cc1N
? | Cc1c(C#N)c2ncn(Cc3ccccn3)c(=O)c2n1-c1ccccc1
11µM* | COc1ccc(CNC(=O)c2ccccc2[N+](=O)[O-])cc1
3.2µM* | C=CCOc1c(Br)cc(/C=N/n2c(CC)n[nH]c2=S)cc1Br
-7% | COc1cccc(S(=O)(=O)NCc2ccc(C(=O)Nc3ccc(C)cc3)cc2)c1
-1% | CCOC(=O)c1c(NC(=O)Cc2cccs2)sc(C(=O)NC2CCCC2)c1C
-15% | CCOC(=O)C1=C(CSc2nc3ccccc3s2)NC(=O)NC1c1cc(C)ccc1C (stereo not drawn)
? | Cc1nn(-c2ccccc2)c2sc(C(=O)NC3CCCCC3)cc12

Grouped by structure: the compounds so far with a furan ring, fused or not.
HPGD inh | Compound
-23% | Cc1cc(SCC(=O)NC(=O)NCc2ccco2)nc2ccccc12
-5% | Cc1occc1-c1nnc(SCC(=O)N2CCOCC2)o1
? | NC(=O)c1oc2ccccc2c1NC(=O)CCc1ccccc1
-10% | O=C(Oc1ccc(N2C(=O)CCC2=O)cc1)c1ccco1
-8% | CCn1c(SCC(=O)N2CCc3ccccc32)nnc1-c1ccco1
-30% | CCOC(=O)c1c(CN(C)C)oc2cc(CN(C)C)c(O)c(CSc3ccccc3)c12
-9% | COc1cc(S(=O)(=O)N(Cc2ccc(C)cc2)Cc2ccco2)ccc1-n1cnnn1
-30% | COc1ccc(C(=O)CSc2nnc(-c3cc4ccccc4cc3O)n2Cc2ccco2)cc1
-7% | CCOc1ccc(CC(=O)Nc2c(C(N)=O)oc3ccc(Br)cc23)cc1OCC
? | O=C(NCCc1csc(-c2cccnc2)n1)c1ccc(Br)o1
-9% | COC(=O)[C@@H](NC(=O)NCc1ccco1)C(C)C
-3% | O=C(CCCN1C(=O)/C(=C\c2ccco2)SC1=S)Nc1ccc2ccccc2c1
-3% | Cc1ccc(C(=O)N2c3ccc(F)cc3CCC2C)o1 (stereo not drawn)
-18% | CCC(C(=O)NCc1ccc(F)cc1)N(Cc1ccco1)C(=O)c1snc(C(N)=O)c1N (stereo not drawn)
